Screening results: PubChem BioAssay, several laboratories
RanGTP-Imp inh = inhibitors of RanGTP-importin-beta interaction, primary screen, biochemical, FRET, CFP-Ran, YFP-importin-beta, homogeneous | cell-free CFP-Ran/YFP-importin-beta FRET ratio | 1.1% of 300,000 active | inhibition, % (no concentration beside the values);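 active means most replicates above 15%; inconclusive means exactly half above 15%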;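 further: 0% = DMSO wells and 100% = Ran loaded with GDP instead of GTP; wells of about 40 µL received 100 nL stock; the first replicate is given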
Vif TR-FRET = HIV-1 Vif–A3G interaction blockers – biochemical, TR-FRET, GST-Vif 1-94, biotin-A3G peptide, dose response retest, primary screen (AID 1117319); TR-FRET GST-Vif / biotin-A3G peptide binding; higher % means a stronger effect; test concentration not given here; strong numbers were not always called active; one-dose inhibition, %; IC50 in µM for titrated hits; 0.57% of 260,000 active;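 active means above the screen mean plus three standard deviations and confirmed in dose response; inconclusive means results disagree or hit not tested in dose response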;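 further: Vif residues 1-94 fused to GST binding biotinylated APOBEC3G peptide 110-148; 0% = full assay without inhibitor and 100% = GST in place of GST-Vif; retest series ran down from 100 µM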
Bfl-1 A1 inh = inhibitors of the anti-apoptotic protein A1, read as caspase activation. MEF A1-2A-BIM cells, Caspase-Glo 3/7 luminescence, 3 h; percent of clofoctol response, vehicle zero. caspase activation, % (no concentration beside the values). 0.066% of 330,000 active. AID 2462;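 active means over half of replicate activation scores above 10%, or exactly half above 10 with the replicate mean above 10; inconclusive means replicate mean below 10 yet half the replicates above 10; inactive means over half of replicates below 10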;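 further: wells of about 30 µL received 50 nL stock; many hits fall short of the cut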
MLL AF4-AF9 inh = MLL-AF4/AF9 protein interaction inhibition. AlphaScreen, biotin-AF4 peptide binding to FLAG-AF9. P42568. 0.47% of 350,000 active. inhibition, % at 10 µM;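 active means every replicate reaching a set inhibition limit, whatever the replicate mean, cut at about 25% in these data; inconclusive means mean inhibition reaches that limit but some replicates miss it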;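 further: 0% = plate neutral control median and 100% = total signal loss; the record names both 10 and 1 µM as test concentration; the first replicate is given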
Target sequence (P42568 whole entry, looked up): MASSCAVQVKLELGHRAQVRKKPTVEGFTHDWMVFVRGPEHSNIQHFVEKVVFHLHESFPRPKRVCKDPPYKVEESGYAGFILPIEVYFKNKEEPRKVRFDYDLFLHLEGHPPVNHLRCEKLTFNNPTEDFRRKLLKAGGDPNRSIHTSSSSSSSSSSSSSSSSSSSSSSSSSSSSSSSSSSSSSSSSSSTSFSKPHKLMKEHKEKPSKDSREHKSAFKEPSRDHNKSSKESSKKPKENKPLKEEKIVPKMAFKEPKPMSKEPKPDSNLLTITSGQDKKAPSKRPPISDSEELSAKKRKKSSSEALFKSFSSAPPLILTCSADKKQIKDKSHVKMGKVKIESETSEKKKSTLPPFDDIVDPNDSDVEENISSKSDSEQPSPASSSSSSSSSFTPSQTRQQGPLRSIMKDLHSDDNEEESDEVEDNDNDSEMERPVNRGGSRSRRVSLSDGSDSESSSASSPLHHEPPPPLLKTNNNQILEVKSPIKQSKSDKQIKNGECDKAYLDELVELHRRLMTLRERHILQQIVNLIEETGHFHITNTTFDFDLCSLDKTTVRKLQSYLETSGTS
Beta cell apopt = blocks beta cell apoptosis. INS-1E cytokine-induced death, ATP luminescence, 48 h; percent of positive-control rescue, neutral wells zero. AID 435005. protection from apoptosis, % (test concentration not listed). 0.8% of 300,000 active;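 active means all replicates at 75% or more, or half of them and the mean; inconclusive means half reach 75% but not the mean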;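 further: 0% = cytokine-treated negative control wells and 100% = positive control rescue; higher means more ATP so stronger rescue from cytokine killing; wells of about 40 µL received 100 nL stock; the first replicate is given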
rRNA inh HTS = inhibitors of bacterial rRNA selective over humanized ribosomes. E. coli WT GFP vs humanized-ribosome RFP mutants, fluorescence, 24 h; active compounds read low; DMSO median 0, no signal -100. AID 720706. 1.6% of 350,000 active. GFP signal change (wild-type ribosome), % (concentration not given with the values);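 active means significant combined selectivity score with lowered wild-type GFP, culture density cut under 30%, mutant RFP and density less affected; inactive means any of these conditions unmet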; further: one replicate is shown; some compounds called inactive have numbers as strong as hits
Calb FLC = C. albicans growth modulation with fluconazole; C. albicans CaCi-2 (fluconazole-resistant clinical isolate) + fluconazole, Alamar Blue growth, 48 h; 0.57% of 300,000 active; AID 1979; growth inhibition, % (test concentration not listed);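 active means most replicates above 75%; inconclusive means exactly half above 75%; inactive means most below 75%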;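 further: all wells also contain fluconazole at 8 µg/ml as a sub-toxic cotreatment; 0% = median of DMSO wells and 100% = median of geldanamycin control wells; wells of about 8 µL received 7.5 nL stock; the first replicate is given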
T cruzi repl = T. cruzi replication inhibition | T. cruzi beta-gal in NIH3T3, luminescence, 90 h | inhibition, % (test concentration not listed) | 1.4% of 300,000 active;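 active means mean inhibition across valid replicates above about 55%, limit read from the data; inconclusive means mean below that limit but half or more replicates reach it; inactive means mean below it, under half of replicates reach it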;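 further: signal also drops with host cell toxicity which is not excluded here; 0% = plate median of DMSO wells and 100% = zero luminescence signal; higher percent means less beta-gal luminescence so fewer parasites; stock transfer was 50 nL into about 50 µL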
rRNA inh HTS OD600 = further read-out of rRNA inh HTS, marked with its call; OD600 change, %; measured here: OD600 growth;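 optical density of the mix in the first replicate; 0 = DMSO median and -100 = no signal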
rRNA inh HTS RFP = further read-out of rRNA inh HTS, marked with its call; RFP signal change, %; measured here: RFP humanized mutant strains;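 first replicate; 0 = DMSO median and -100 = no signal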
Numbers without * were called inactive; ? = inconclusive; · = not tested or not shown. Only part of the results is shown; the hit share may differ from the screen's.

SMILES | RanGTP-Imp inh | Vif TR-FRET | Bfl-1 A1 inh | MLL AF4-AF9 inh | Beta cell apopt | rRNA inh HTS | rRNA inh HTS OD600 | rRNA inh HTS RFP | Calb FLC | T cruzi repl
CCOc1ccc(S(=O)(=O)N(C)c2ccc(OCC(=O)N3c4ccc(C)cc4C4CN(C)CCC43)cc2)cc1 (centres undefined) | 6.3 | · | 0.2 | 16 | -5 | -18 | -3 | 26 | -1 | 48
O=c1cc(N2CCc3ccccc3C2)[nH]c(=O)n1-c1ccc(Cl)cc1 | 117* | 21% | -0.6 | -2.9 | -3 | 1 | 3 | -7.5 | 3 | -8
CN(C)CCCOc1nn(Cc2ccccc2)c2ccccc12 | ? | · | -0.6 | -0.1 | 0 | · | · | · | · | 9
CN(CC(=O)Nc1ccccc1Br)C(=O)c1cc(Cl)nc2ccccc12 | · | -5% | -0.2 | -0.3 | -13 | -6 | -6 | 0.8 | · | ·
COc1ccc(CNC(=O)CCCNS(=O)(=O)c2cccc3nonc23)cc1 | 63* | -8% | 0.3 | · | 0 | · | · | · | -2 | -4
CN(CC(=O)Nc1ccc2c(c1)OCCO2)S(=O)(=O)c1ccc(F)cc1 | 0.4 | · | -0.1 | 1.9 | 1 | 3 | -17 | -0.2 | -4 | -11
CC(C)(C#CCN1CCCCC1)OCCOC(c1ccccc1)c1ccccc1 | -2.4 | · | 0.1 | · | 18 | · | · | · | 2 | 6
CCOc1cc(C2CC(=O)N3CN(C4CCCCC4)CSC3=C2C#N)ccc1O (centres undefined) | -2.9 | ? | -0.2 | -10 | -5 | -8 | -10 | -2.0 | -5 | -3
CC1(C)CC(NC(=O)c2c(N)no[n+]2[O-])CC(C)(C)N1 | 1.6 | · | 1.3 | -0.6 | -4 | 1 | -3 | 3.1 | -3 | -19
Nc1nnnn1/N=C/C(Br)=C/c1ccccc1 | -3.4 | 4% | ? | · | 42 | · | · | · | 56 | -16
O=C(N1CCN(c2ccccc2F)CC1)C1(S(=O)(=O)c2ccc(Cl)cc2)CC1 | -1.1 | · | 0.7 | 0.4 | 1 | -4 | -16 | 1.5 | -5 | 8
CCOC(=O)Cc1csc(NS(=O)(=O)c2ccc3c4c(cccc24)C(=O)N3CC)n1 | -2.5 | -1% | -0.3 | · | -14 | · | · | · | 7 | ·
CCC1=[N+](C)c2cccc3cccc(c23)N1C | -2.3 | 0% | 0.2 | -1.0 | -10 | 11 | 12 | 4.2 | 2 | 14
O=C(c1ccc2oc(CCCc3ccccc3)nc2c1)N1CCCC(CCCO)C1 (centres undefined) | 4.6 | · | -0.1 | 1.8 | -3 | -33 | -35 | -7.5 | -8 | -4
CCS(=O)(=O)N1CCC(c2nc(-c3ccc(C)cc3)no2)CC1 | 6.8 | 3% | -0.3 | · | -3 | · | · | · | 5 | -2
Cc1noc(C)c1C(=O)OCC(=O)NC1CC1 | -0.8 | 2% | -0.2 | · | -3 | · | · | · | -1 | -11
COc1ccc(OC)c(S(=O)(=O)Nc2cc3c4c(c2)CC(=O)N4CCC3)c1 | 0.4 | 13% | -0.8 | -58 | -1 | 3 | 10 | -0.6 | -1 | 1
Cc1cc(C(F)F)n2ncc(C(=O)NCCc3ccccc3Cl)c2n1 | 6.4 | 0% | -0.5 | · | 5 | · | · | · | 0 | 18
Cn1c(=O)c2c(ncn2CC(=O)OCC(=O)NNC(=O)c2ccc(Cl)cc2)n(C)c1=O | · | · | 0.4 | 1.2 | -2 | 9 | 10 | -0.5 | · | ·
COCCn1c(=O)[nH]c2cc(C(=O)N3CCN(c4ccc(OC)cc4)CC3)ccc2c1=O | -0.7 | 3% | 0.1 | 0.7 | 0 | 5 | 6 | -0.4 | -4 | 6

Four entries from above, with tabs:
canonical_smiles	RanGTP-Imp inh	Vif TR-FRET	Bfl-1 A1 inh	MLL AF4-AF9 inh	Beta cell apopt	rRNA inh HTS	rRNA inh HTS OD600	rRNA inh HTS RFP	Calb FLC	T cruzi repl
O=C(c1ccc2oc(CCCc3ccccc3)nc2c1)N1CCCC(CCCO)C1 (centres undefined)	4.6	·	-0.1	1.8	-3	-33	-35	-7.5	-8	-4
CCS(=O)(=O)N1CCC(c2nc(-c3ccc(C)cc3)no2)CC1	6.8	3%	-0.3	·	-3	·	·	·	5	-2
Cc1noc(C)c1C(=O)OCC(=O)NC1CC1	-0.8	2%	-0.2	·	-3	·	·	·	-1	-11
COc1ccc(OC)c(S(=O)(=O)Nc2cc3c4c(c2)CC(=O)N4CCC3)c1	0.4	13%	-0.8	-58	-1	3	10	-0.6	-1	1

(further entries)
SMILES | RanGTP-Imp inh | Vif TR-FRET | Bfl-1 A1 inh | MLL AF4-AF9 inh | Beta cell apopt | rRNA inh HTS | rRNA inh HTS OD600 | rRNA inh HTS RFP | Calb FLC | T cruzi repl
O=C(Cc1ccccc1)NCC(=O)N1CCN(c2ccccc2F)CC1 | 4.3 | · | 1.3 | -0.7 | -3 | 2 | 1 | 3.8 | 8 | -2
Cc1ccc(-c2cc(C(=O)NCCN3CCOCC3)no2)cc1 | -2.5 | 1% | -0.4 | · | -11 | · | · | · | -3 | -7
Cc1cc(C)cc(-n2ccnc2SCC(=O)Nc2nccs2)c1 | 4.9 | -5% | 0.2 | · | -1 | · | · | · | 45 | -5
CC1CCc2nc(NC(=O)c3ccco3)sc2C1 (centres undefined) | 1.5 | 72% | 0.6 | · | 14 | · | · | · | -7 | -5
O=C(c1ccccc1)N1CCN(C(=O)c2ccc3c(c2)OCCO3)CC1 | -2.5 | 12% | 0.6 | -2.0 | -1 | 22 | 16 | 1.7 | -5 | -4
CC(NC(=O)C12CC3(C)CC(C)(CC(C)(C3)C1)C2)C(=O)O (centres undefined) | ? | 3% | -0.5 | -1.4 | 1 | 8 | 6 | -3.5 | 10 | -9
O=C1Cc2ccccc2C(=O)N1OCc1ccc(Cl)cc1 | -0.6 | 7% | -0.3 | -1.8 | 0 | 11 | 7 | -2.8 | -4 | 2
CCOC(=O)c1c(C)[nH]c(C(=O)OCC(=O)N(C)c2c(N)n(Cc3ccccc3)c(=O)[nH]c2=O)c1C | · | -6% | 0.3 | 3.4 | 3 | -4 | -2 | 1.4 | · | ·
CCOC(=O)c1[nH]c(C)c(C(=O)Nc2ccc(C)cc2C)c1C | -1.7 | ? | 1.1 | · | 22 | · | · | · | 0 | -15
O=S(=O)(Cc1noc(-c2ccc(OC(F)(F)F)cc2)n1)c1ccc(F)cc1 | -2.6 | 2% | 0.8 | 0.7 | 6 | 12 | 6 | 3.0 | 4 | -10
CCOc1ccc(C(=O)N2CCCC2)cc1OC | 0.8 | 6% | 0.4 | · | -3 | · | · | · | 6 | -15
CCC1=C(OC(=O)N(CC)CC)N2C(=O)OC(=NCCc3c[nH]c4ccccc34)[C@]2(Cc2ccccc2)[C@H]2C1=CC[C@H]1C(=O)N(c3ccccc3)C(=O)[C@H]12 | -2.2 | -5% | 0.8 | · | 12 | · | · | · | -3 | -24
COc1ccc(NC(=O)c2cc3sccc3n2Cc2ccc(F)cc2)cc1OC | -0.9 | -3% | -1.1 | · | 2 | · | · | · | -7 | 33
CC/C=C/C(=O)N1CC2(CC(c3cccc(NC(=O)CC)c3)=NO2)C[C@H]1C(N)=O (some centres undefined) | ? | 4% | 0.2 | 0.4 | -5 | 5 | 9 | -1.4 | 9 | -41
O=C(CNC(=O)c1ccco1)OCc1ccc(C(=O)Oc2ccccc2)cc1 | 2.5 | -6% | 2.5 | · | -6 | · | · | · | -4 | 6
COCCn1cc(C(=O)N2CCC(C)CC2)c2c3ccccc3n(C)c2c1=O | -0.3 | 31% | 0.2 | · | -10 | · | · | · | -31 | 19
CCOC(=O)c1c(C)[nH]c(C)c1C(=O)COC(=O)c1cccc(S(=O)(=O)NC)c1 | 4.9 | >100µM* | 0.4 | · | -8 | · | · | · | -1 | 12
COc1ccccc1CN(C(=O)c1cnccn1)C(C(=O)NC1CCCCC1)c1cc(OC)c(OC)c(OC)c1 (centres undefined) | -1.1 | 0% | 0.0 | 0.8 | -1 | 10 | 13 | 0.3 | 8 | 1
Cc1cccc(NC(=O)C(C)N2C(=O)C3C4CC(C(Br)C4Br)C3C2=O)c1 (centres undefined) | 2.6 | 10% | -1.1 | · | -5 | · | · | · | 34 | -5
CSc1nc(NNC=O)cc(Oc2ccc(NC(C)=O)cc2)n1 | 2.7 | · | 0.9 | -0.6 | -7 | 7 | 10 | -2.5 | -1 | 0
NC(=O)c1ncc(C(F)(F)F)cc1Oc1cccc(F)c1 | 5.6 | 8% | 0.6 | · | -1 | · | · | · | 2 | 8
COc1ccc(NC(=O)CCC(=O)Nc2nnc(C3CCCCC3)s2)c(OC)c1 | ? | · | -1.0 | -2.7 | -5 | 0 | 5 | -0.8 | -1 | 7
Cc1ccc(C(=O)Nc2ccccc2C(=O)N2CCCC2)cc1[N+](=O)[O-] | -1.6 | -7% | 0.3 | · | -1 | · | · | · | -6 | -5
Nc1c2c(nc3ccccc13)N(C1CCCCC1)CC2 | -2.3 | 9% | -0.9 | · | -7 | · | · | · | 0 | 28
O=C(CN1C(=O)NC2(CCCC2)C1=O)NCCc1ccc(Cl)cc1Cl | · | -5% | -0.1 | 0.7 | -2 | 2 | -15 | -1.6 | · | ·
Cc1ccc(SCc2nc3ccccc3[nH]2)cc1 | -5.5 | 27% | 0.2 | · | -3 | · | · | · | 10 | -12
CC(=O)OC1CC(C)(C)N(OC(=O)c2ccccc2)C(C)(C)C1 | 3.9 | -2% | 0.3 | · | -5 | · | · | · | 17 | -10
CCC(C)NC(=O)c1cc(Sc2nnc(C)s2)nc2ccccc12 (centres undefined) | -1.2 | -6% | 0.0 | -0.7 | -5 | 12 | 5 | -6.0 | 1 | -15
Cc1nc(SCN2C(=O)c3ccccc3C2=O)n[nH]1 | ? | 11% | 0.0 | · | · | · | · | · | 0 | 0
Cc1cc(C2=NNC(=NC3CC3)SC2)c(C)n1Cc1ccco1 | · | 4% | -3.8 | -0.9 | 43 | · | · | · | · | ·
C/C=C(\C)CN1CCC(n2nccc2NC(=O)CCOc2ccccc2)CC1 | 5.8 | 7% | 0.1 | -0.8 | 1 | 6 | 3 | 2.9 | 5 | 17
O=C(Cc1ccccc1)NCC(=O)OCC(=O)c1ccc([N+](=O)[O-])cc1 | 7.1 | -1% | 0.5 | · | 4 | · | · | · | 10 | 1
O=C1S/C(=C\c2ccc(O)c([N+](=O)[O-])c2)C(=O)N1c1ccccc1Cl | 2.0 | 0% | -0.2 | 1.9 | 29 | -14 | -4 | -1.3 | 41 | 11
CCc1ccc(NC(=O)CSc2ccc(-c3sc(C)nc3C)nn2)cc1 | 0.6 | · | -0.8 | -5.9 | 4 | 7 | 8 | 3.7 | 7 | 22
Cc1ccc(C(=O)N(Cc2nc(-c3ccc(C)cc3)no2)C(C)C)cc1 | -0.2 | 1% | 0.5 | -2.2 | 2 | 11 | 11 | 0.1 | -10 | -4
